StopGo FLuc = lowers the firefly signal of an FMDV 2A StopGo reporter. HEK cells with a luciferase reporter of 2A StopGo recoding. Potency, µM (series often up to 57.5 µM), for the others: at the top dose signal change, negative = less light. 120,000 compounds, 0.23% hits. AID 1745856; active = well fitted falling curve with a large enough effect; inconclusive = small, poorly fitted or top-dose-only effect; inactive = no such curve, though single readings can be large or run the other way; note: nearly all actives have a fitted effect of over 60% in size; overnight with compound
StopGo RLuc = FMDV 2A StopGo reporter, Renilla signal. HEK cells with a luciferase reporter of 2A StopGo recoding. Potency, µM (series often up to 57.5 µM), inactives show at the top dose signal change, negative = less light. 120,000 compounds, 0.32% hits; active means well fitted falling curve with a large enough effect; inconclusive means small, poorly fitted or top-dose-only effect; inactive means no such curve, though single readings can be large or run the other way; note: nearly all actives have a fitted effect of over 55% in size; overnight with compound
* hit, by the source's call; u = inconclusive; & = joins results of further samples; [ ] = remark or other dose. % is set by controls: 0 for no effect and ±100 for the full control effect; potency is the fitted concentration of half-maximal effect. The list is partial; count on the stated rates, not on these rows.

SMILES	StopGo FLuc	StopGo RLuc
COc1ccc2nc(C)c(C(=O)Oc3ccc(C4SCCS4)cc3OC)cc2c1	-4%	-12%
COc1ccc(C23CC4CC(CC(C(=O)N(C)Cc5ccc(OC)c(OC)c5)(C4)C2)C3)cc1	u	u
COc1cc(OC)cc(C(=O)N2CCN(c3cc(=O)n4nc(-c5ccccc5C)sc4n3)CC2)c1	97%[activator]	11%
COc1ccc(CCNc2oc(C(C)C)nc2C#N)cc1	194%[activator]	19%
CCOC(=O)c1ccccc1NC(=O)CSc1c(C)cnc2c1c(=O)n(C)c(=O)n2C	-11%	-7%
CCN1CCN(c2oc(-c3ccc(Cl)cc3)nc2C#N)CC1	33%[activator]	-3%
COC(=O)c1nnn(-c2cccc(C)c2)c1C(=O)OC	-9%	-9%
CCCCCc1ccc(-c2ccc(Br)cc2)nc1	86%[activator]	3%
Cc1nc2cc(F)ccc2cc1C(=O)NC1CCC(C)CC1 (stereo not given)	14%	-14%
CC1CCCCN1CCCNC(=O)c1cc(C2CC2)nc2ccccc12 (stereo not given)	-12%	-12%
COc1ccccc1-c1c(C)nn2c(N3CCN(c4ccc(F)cc4)CC3)cc(C)nc12	-12%	-4%
O=C(OCC(=O)N1CCCCC1)c1cc(-c2cccs2)nc2ccccc12	77%[activator]	-6%
CCOc1ccc(C(=O)Cn2cnc3c2c(=O)n(C)c(=O)n3C)cc1	-3%	-12%
O=[N+]([O-])c1ccc(C=NCC23CCC4CC(CC(C4)C2)C3)cc1	18%	12%
CC1CCN(CC2CCCCCN2)CC1 (stereo not given)	7%	8%
CCOC(=O)c1c(S(=O)(=O)NCC(=O)N2CCN(c3ccccc3)CC2)c(C)n(C)c1C	-11%	38%[activator]
CC(NC(=O)CCC1CCCCC1)C1CCCO1 (stereo not given)	1%	1%
CCCc1noc(Cn2c(=O)c(C#N)cn(C3CC3)c2=O)n1	-7%	-6%
COC(=O)C1=C(C(=O)OC)SC(=C(Cl)C(=S)NCc2ccccc2)S1	0%	139%[activator]
Cc1ccc(S(=O)(=O)c2nnn3c2nc(N2CCN(c4ccccc4F)CC2)c2ccccc23)cc1C	-17%	-12%

An excerpt of these results, as a markdown table.
| SMILES | StopGo FLuc | StopGo RLuc |
| --- | --- | --- |
| CCCCCc1ccc(-c2ccc(Br)cc2)nc1 | 86%[activator] | 3% |
| Cc1nc2cc(F)ccc2cc1C(=O)NC1CCC(C)CC1 (stereo not given) | 14% | -14% |
| CC1CCCCN1CCCNC(=O)c1cc(C2CC2)nc2ccccc12 (stereo not given) | -12% | -12% |
| COc1ccccc1-c1c(C)nn2c(N3CCN(c4ccc(F)cc4)CC3)cc(C)nc12 | -12% | -4% |
| O=C(OCC(=O)N1CCCCC1)c1cc(-c2cccs2)nc2ccccc12 | 77%[activator] | -6% |

Further records:
SMILES	StopGo FLuc	StopGo RLuc
CCN(C(=O)C(C)S(=O)(=O)Cc1ccccc1Cl)c1ccccc1 (stereo not given)	-4%	12%
CCOCN(C(=O)Cn1c(COC)nc2ccccc21)c1c(C)cccc1CC	-13%	6%
CC1CCN(C(=O)CSc2nnc(-c3ccccc3Cl)n2C2CCCC2)CC1	-5%	-5%
Cc1cccc(N2CCn3c2nc2c3c(=O)n(C/C=C/c3ccccc3)c(=O)n2C)c1	0%	-6%
COc1ccc(CC(=O)NCc2nnc3ccccn23)c(OC)c1	72%[activator]	-3%
O=C(CCSc1ccc(F)c(F)c1)Nc1ccc(-n2cnnn2)cc1	18%	0%
COc1ccc(OC)c(NC(=O)CSc2c3c(nc4ccccc24)CCCC3)c1	-3%	0%
CCOc1ccc(-n2c(=O)c3c(C)c(C(=O)N(C)C)sc3n(Cc3cc(C)ccc3C)c2=O)cc1	-14%	-12%
CN(Cc1ccco1)C(=O)CCc1c[nH]c2ccccc12	65%[activator]	117%[activator]
Oc1ccccc1Nc1nc(-c2ccccc2)c2cc(Cl)ccc2n1	16%	-4%
Cc1noc(/C=C\c2ccc(S(=O)(=O)N3CCCCC3C)cc2)c1NC(=O)C1CC1 (stereo not given)	u	-74%
CCCCOc1ccc(C(=O)Nc2ccc3oc(-c4cccnc4)nc3c2)cc1	u	u
Cc1ccc(NS(=O)(=O)c2ccc3c(c2)c(=O)n(CC(=O)N2CCCCCC2)c(=O)n3C)cc1C	u	-30%
COc1ccc(NC(=O)c2ncoc2-c2ccc(C)o2)cc1OC	6%	27%
Cc1ccc(OCC(=O)Nc2ccc3c(C)cc(=O)oc3c2)cc1	25%	-14%
CCOC(=O)c1cccc(NC(=O)Nc2c(C)n(C)n(-c3ccccc3)c2=O)c1	-12%	-4%
CCCn1ccc2c(OCC(=O)NCc3ccc(F)cc3)cccc2c1=O	6%	29%
Cc1ccc(C(=O)O)cc1NC(=O)CC(C)(C)C	-2%	1%
CC(C)(C)c1csc(-c2ccc(O)cc2)n1	188%[activator]	43%[activator]
Cc1ccc(CNC(=O)c2csc(Nc3ccccc3C)n2)cc1	19%	5%

One compound at a time, from the list above:
`CC1CCN(C(=O)CSc2nnc(-c3ccccc3Cl)n2C2CCCC2)CC1` is listed as StopGo FLuc: -5%; StopGo RLuc: -5%
`CCN(C(=O)C(C)S(=O)(=O)Cc1ccccc1Cl)c1ccccc1` (stereo not given) is listed as StopGo FLuc: -4%; StopGo RLuc: 12%

Going on with the list.
SMILES	StopGo FLuc	StopGo RLuc
Cn1cc(S(=O)(=O)N2CCOCC2)cc1C(=O)Nc1ccc(Cl)c(C(F)(F)F)c1	-20%	-17%
C=C(Cl)CC[N+](C)(C)CC#Cc1ccc(Cl)cc1	19%	13%
CC(C)c1ccc(/C=C(\C#N)C(=O)NC2CCCC2)cc1	0%	97%[activator]
O=c1c2cc3c(cc2n(Cc2cccc(Cl)c2)c(=O)n1Cc1nc(-c2ccccc2)no1)OCO3	-9%	-3%
COc1cc(NS(=O)(=O)c2ccc3c(c2)CC(=O)N3)cc(OC)c1OC	-20%	-3%
COc1cccc(CNC(=O)c2oc3ccc4c(c3c2C)C(=O)CC(C)(C)O4)c1OC	42%[activator]	10%
O=C(NCC(c1ccco1)S(=O)(=O)c1cccs1)c1ccc2c(c1)OCO2 (stereo not given)	0%	74%[activator]
COc1ccc(NC(=O)C(C)Sc2ccccc2C(=O)NCC(=O)C(C)(C)C)cc1OC (stereo not given)	11%	4%
c1coc(CNCCCN2CCCCC2)c1	-10%	-2%
Cc1cc(C)cc(NC(=O)Cn2c(C(F)(F)F)nc3ccccc32)c1	-20%	-11%
CCCCOc1ccc(CNC(=O)c2cnc3sc(N4CCCCCC4)nn3c2=O)cc1	-5%	-6%
COc1cc(OC)c(CC2C(=O)Nc3ccc(Br)cc32)c(OC)c1 (stereo not given)	12%	39%[activator]
O=C(c1ccco1)N1CCN(C(=O)C2CCN(C(=O)c3cccs3)CC2)CC1	-1%	-10%
COC(=O)c1sccc1S(=O)(=O)N(CC(=O)NCc1ccc(C)cc1)c1ccc(C)c(C)c1	-15%	5%
NC(=O)Cn1c(=O)n(CCCCCC(=O)NCc2ccccc2)c(=O)c2sccc21	-5%	-10%
Cc1cccc(C(=O)OCc2ccc(-c3ccccc3)cc2)n1	23%	-12%
COc1cc(C2C3=C(CC(C)(C)CC3=O)OC3=C2C(=O)CC(C)(C)C3)ccc1OS(=O)(=O)c1ccc(C)cc1	9%	16%
COC(=O)c1ccc(CSc2nc3c([nH]c4ccccc43)c(=O)n2-c2cccc(OC)c2)o1	u	u
O=c1c2ccc(Cl)cc2ncn1Cc1ncc(-c2ccc(Cl)cc2)o1	1%	-7%
COc1ccc(C)cc1NC(=O)NC(C)c1c(-n2cccc2)sc(C)c1C (stereo not given)	0%	11%
Cc1cccc(C(=O)N2CCc3cc(CNC(=O)COc4ccc(Cl)cc4)ccc32)c1	-18%	0%
Cc1ccc(-c2c(C(=O)N3CCN(c4cccc(C)c4)C(C)C3)oc(=O)c3ccccc23)cc1 (stereo not given)	-7%	2%
CC(C)(C)C(=O)/C=c1/[nH]c(=O)/c(=C/c2ccc(OC(F)F)cc2)s1	u	u
Cc1cc2oc(C(=O)N(Cc3ccccc3F)C3CCS(=O)(=O)C3)c(C)c2cc1Cl (stereo not given)	-21%	-15%
COc1ccc(OC)c2sc(N3CCN(C(=O)C4COc5ccccc5O4)CC3)nc12 (stereo not given)	-4%	-9%
Cc1cn2c(=O)cc(COc3cccc(NC(=O)c4cccc(F)c4)c3)nc2s1	-9%	-9%
CCOc1ccc(N(CC)S(=O)(=O)N2CCCC(C(=O)Nc3ccc(OC)c(OC)c3)C2)cc1 (stereo not given)	21%	-14%
CCN1C(=O)C(O)(c2c(C)[nH]c3ccccc23)c2ccccc21 (stereo not given)	-25%	-17%
CCN(CC)CCCNC(=O)c1sc2nc3n(c(=O)c2c1C)CCCCC3	11%	-20%
COc1ccc(OC)c(NC(=O)COc2cc(C)cc(C)c2C)c1	3%	-2%
CS(=O)(=O)N1CCc2cc(C(=O)Nc3cccc(-c4nnc5n4CCCCC5)c3)ccc21	25%	0%
CCC(C)n1nnc2cc(S(=O)(=O)N3CCC(C(=O)Nc4ccccc4OC)CC3)ccc21 (stereo not given)	-8%	6%
Nc1c(N(Cc2ccco2)C(=O)Cc2c(F)cccc2Cl)c(=O)[nH]c(=O)n1Cc1ccccc1	-13%	-14%
Cc1sc(/N=C/c2ccccc2Cl)c(C#N)c1C	0%	16%
N#Cc1ccc(NC(=O)c2cc(-c3cccc(Cl)c3)on2)cc1	0%	3%
COc1cccc(NC(=O)c2c(C(=O)Nc3ccccc3)sc3nc(C)cc(=O)n23)c1	-14%	-8%
CCOc1ccc(S(=O)(=O)N(C)CC(=O)N2CCN(C)CC2)cc1C	0%	-7%
COC(=O)c1sccc1S(=O)(=O)N(CC(=O)Nc1cc(F)ccc1F)c1ccc(C)c(C)c1	u	226%[activator]
Clc1c2ccccc2c(/C=N/N2CCCCC2)c2ccccc12	u	0%
Cc1ccc(C)c(N2CCN(c3cc(C)nc4nc(-c5ccco5)nn34)CC2)c1	-9%	-10%
Cc1c(C(=O)Nc2cc(F)ccc2F)sc2nc(-c3ccc(F)cc3)cn12	-8%	-11%
CCCn1c(=O)c2c(ncn2Cc2ccccc2)n(Cc2ccccc2)c1=O	-6%	-11%
COC(=O)c1cc(OC(=O)c2cc3ccccc3cc2OC)cc(C(=O)OC)c1	2%	-4%
COc1ccc2oc(=O)cc(CN3CCN(C(=O)c4ccccc4)CC3)c2c1	-4%&-22%	-2%&-16%
CCc1nc2c(sc3ncccc32)c(=O)n1CC(=O)Nc1ccc(C(C)C)cc1	-2%	-7%
CC(C)CC(=O)Nc1nnc(S(=O)(=O)N(C)c2ccc(Cl)cc2)s1	0%	-5%
CCCCCC1=CCC/C1=N\NC(=O)C(N)=O	9%	-3%[1.06 µM]
Cc1nn(-c2ccc(N3CCOCC3)nn2)c(C)c1CCC(=O)NCCc1ccco1	31%[activator]	7%
CNC(=O)c1cc(NC(=O)CCn2nc(-c3ccc(C)cc3)c3ccccc3c2=O)ccc1OC	5%	9%
CS(=O)(=O)Oc1ccc2c(=O)c(Oc3ccccc3Br)coc2c1	21%	u
Cc1ccc(NC(=O)Cn2nc(C(F)(F)F)c3c2CCCC3)cc1C	46%[activator]	46%[activator]
COc1ccc(Cn2cc(S(=O)(=O)c3ccc(Cl)cc3)c(=O)c3cc4c(cc32)OCO4)cc1	-13%	-1%
CCOC(=O)c1cnn(-c2cc(C)nc3c(-c4ccccc4)c(C)nn23)c1N	-12%	-9%
CC(O)CNCc1ccc(-c2cccc(C(F)(F)F)c2)o1 (stereo not given)	42%[activator]	9%
Cc1ccc(C(=O)NCCc2nc3cc(NC(=O)C4CCCCC4)ccc3n2C)cc1F	-5%	13%
COc1cc(CNCC2CCNCC2)ccc1OCc1ccccc1Cl	u	35µM*
COc1cc(N)c(Cl)cc1C(=O)NC1CN2CCC1CC2 (stereo not given)	4%[11.5 µM]	-10%
O=C(Nc1cccc(F)c1)c1cccnc1NCc1ccccc1	29%	27%
Cc1nc2c3c(ncn2n1)OC1=C(C(=O)CCC1)C3c1ccco1 (stereo not given)	7%	19%
O=C(Nc1oc2ccccc2c(=O)c1-c1ccc2c(c1)OCO2)C1CCCCC1	10%	-3%

Entries above containing bromine, in the order listed:
SMILES	StopGo FLuc	StopGo RLuc
CCCCCc1ccc(-c2ccc(Br)cc2)nc1	86%[activator]	3%
COc1cc(OC)c(CC2C(=O)Nc3ccc(Br)cc32)c(OC)c1 (stereo not given)	12%	39%[activator]
CS(=O)(=O)Oc1ccc2c(=O)c(Oc3ccccc3Br)coc2c1	21%	u

Next results follow.
SMILES	StopGo FLuc	StopGo RLuc
CCOC(=O)c1cc(NCc2ccc(C)cc2)ccc1N1CCOCC1	u	u
O/N=C1\CCCc2c1nc(-c1ccccc1)n2O	22%	-3%
Cc1noc(C)c1COC(=O)/C=C/c1ccc(Br)o1	7%	4%
CCn1c(=O)cc(OCC(=O)Nc2cc(OC)c(OC)c(OC)c2)c2ccccc21	11%	25%
CC(=O)c1cccc(NC(=O)Nc2ccc(Cl)cc2C(F)(F)F)c1	-2%	-10%
COc1ccccc1NC(=O)C1CCN(c2nc3ccccc3o2)CC1	28%	-5%
C#Cc1cccc(NCc2c(F)c(F)c(F)c(F)c2F)c1	6%	12%
CCOc1ccc(NC(=O)CSc2nc3ccsc3c(=O)[nH]2)cc1	13%	-13%
Cc1ccc(-n2ncc3c(N4CCN(Cc5ccccc5)CC4)ncnc32)cc1Cl	1%	-4%
COc1ccc(-c2nc(CSCC(=O)N3CCN(c4cc(Cl)ccc4C)CC3)c(C)o2)cc1	u	u
CCC(C)(C)NCC(=O)Nc1sccc1C#N	36%[activator]	17%
Cc1ccc(-c2cnc(CCC(=O)Nc3ccccc3F)o2)cc1C	25%	9%
Cc1ccc(NC(=O)C2CCN(S(=O)(=O)c3c(C)noc3/C=C/c3ccco3)CC2)cc1C	-20%	-15%

Screening results as filed in PubChem BioAssay.
